# Screens (PubChem BioAssay)
# G9a inh = blocks human histone lysine methyltransferase G9a. AID 504332. 350,000 tested, 8.8% active. G9a H3K9 monomethylation, AlphaScreen, 2 h. Potency, µM (doses to about 102 µM), for inactives: at the top dose activity, negative = inhibition, actives largely listed as inhibitors. Q96KQ7; also: potency is read from the fitted curve at half-maximal effect; % is scaled to controls: 0 for no effect and ±100 for the full control effect; nearly all actives have a fitted effect of over 75% in size
# Target sequence (Q96KQ7 913-1193 limits assumed): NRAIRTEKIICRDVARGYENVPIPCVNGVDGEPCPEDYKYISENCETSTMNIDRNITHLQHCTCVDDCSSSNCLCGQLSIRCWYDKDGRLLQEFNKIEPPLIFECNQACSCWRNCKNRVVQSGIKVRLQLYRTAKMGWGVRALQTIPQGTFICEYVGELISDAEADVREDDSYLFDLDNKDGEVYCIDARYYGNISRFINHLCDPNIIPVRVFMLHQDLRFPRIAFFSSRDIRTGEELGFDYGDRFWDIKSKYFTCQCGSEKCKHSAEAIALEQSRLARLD
#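 Readings reflect AlphaScreen signal from monomethyl-H3K9 antibody detection. HMT at 20 nM; substrate b-H3K9 500 nM; cofactor SAM 20 uM; 2 h RT reaction; compounds tested as titrations in qHTS with 15 min preincubation.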
# JMJD2A Tudor inh = JMJD2A Tudor domain (human) inhibition; 390,000 tested, 4.4% active; AlphaScreen JMJD2A-Tudor / H3K4me3 peptide binding; Potency, µM (doses to about 114 µM), for inactives: at the top dose activity change, negative = inhibition, hits mostly inhibitors; O75164; also: potency is read from the fitted curve at half-maximal effect; % is scaled to controls: 0 for no effect and ±100 for the full control effect; nearly all actives have a fitted effect of over 50% in size
# RGS4 inhibitor = inhibitors of human regulator of G protein signaling 4; AID 504845; 390,000 tested, 0.039% active; P49798; Potency, µM (doses to about 114 µM), for the others: at the highest dose activity change, negative = inhibition, usual class: inhibitors; Transcreener GDP fluorescence polarization, RGS4-accelerated GTP hydrolysis; also: potency is read from the fitted curve at half-maximal effect; % is scaled to controls: 0 for no effect and ±100 for the full control effect; nearly all actives have a fitted effect of over 75% in size; some results filed as inactive show a strong effect at the top dose
#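 MLSMR compounds (23 nl, pin-transferred) preincubated 10 min at room temperature with a 500nM (2x) first reagent, then RGS4 at 900nM (2x) plus Transcreener GDP mix added; fluorescence polarization (620/688 nm) read before and after 90 min at 30 °C.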
# HP1b binding inh = HP1-beta chromodomain-methylated histone interaction inhibition; 390,000 tested, 0.56% active; AID 540317; AlphaScreen HP1-beta / biotin-H3K9me3 peptide binding; Potency, µM (titrated, usually from 114 µM), for the others: top-dose activity change, negative = inhibition, hits mostly inhibitors; P83916; also: potency is read from the fitted curve at half-maximal effect; nearly all actives have a fitted effect of over 70% in size; inactives centre near 23
# Target sequence (P83916 whole entry, looked up): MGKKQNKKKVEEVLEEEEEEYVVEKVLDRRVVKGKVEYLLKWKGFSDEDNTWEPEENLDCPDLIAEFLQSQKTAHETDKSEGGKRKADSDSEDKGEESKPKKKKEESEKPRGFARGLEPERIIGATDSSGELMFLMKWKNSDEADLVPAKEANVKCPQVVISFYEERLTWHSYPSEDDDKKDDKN
#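 HP1-beta protein (50 nM final) preincubated 30 min at room temperature with biotinylated H3(1-18)K9me3 peptide (50 nM) in PBS pH 7.4, 0.01% Tween-20, then compound added for 30 min. AlphaScreen streptavidin donor/nickel chelate acceptor beads (10 ug/mL final), 30 min dark, luminescence read.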
# PI4K2A block = inhibitors of human PI4K2A | Q9BTU6 | purified PI4K2A, ADP-Glo luminescence, 1 h; active compounds read low | activity change, negative = inhibition, % at 76.9 µM | 420,000 tested, 0.13% active; in the data active = activity change below about -50%; inconclusive = mostly about -30% to -49%;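 also: -100% = wells without enzyme as full effect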
#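 PI4K2A activity was measured by ADP-Glo luminescence: enzyme (4 ug/mL stock) and phosphatidylinositol (1.2 mM stock) in Tris pH 7.5/MgCl2/EGTA/Triton X-100 buffer were reacted with ATP (300 microM stock) for one hour at ambient temperature.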
# ERG Ets-DNA blk = blocks human ERG Ets domain binding to DNA | P11308 | fluorescence polarization, His-ERG Ets domain / labelled DNA | Potency, µM (doses to about 76.9 µM), without a hit: at the highest dose FP activity, negative = inhibition, most hits filed as inhibitors | 370,000 tested, 0.028% active | AID 624246; active = well fitted inhibition curve with a large enough effect in the polarisation, with a control signal flat; inconclusive = small, poorly fitted or top-dose-only effect, or effect the other way, or a change in a side signal; inactive = no such curve, though single readings can be large or run the other way; the % refers to the polarisation;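 also: polarization taken with two DNA probes labelled with fluorescein and Texas red; potency is read from the fitted curve at half-maximal effect; % of control where 0% means no effect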
# Target sequence (P11308 whole entry, looked up, the tested form may be a part): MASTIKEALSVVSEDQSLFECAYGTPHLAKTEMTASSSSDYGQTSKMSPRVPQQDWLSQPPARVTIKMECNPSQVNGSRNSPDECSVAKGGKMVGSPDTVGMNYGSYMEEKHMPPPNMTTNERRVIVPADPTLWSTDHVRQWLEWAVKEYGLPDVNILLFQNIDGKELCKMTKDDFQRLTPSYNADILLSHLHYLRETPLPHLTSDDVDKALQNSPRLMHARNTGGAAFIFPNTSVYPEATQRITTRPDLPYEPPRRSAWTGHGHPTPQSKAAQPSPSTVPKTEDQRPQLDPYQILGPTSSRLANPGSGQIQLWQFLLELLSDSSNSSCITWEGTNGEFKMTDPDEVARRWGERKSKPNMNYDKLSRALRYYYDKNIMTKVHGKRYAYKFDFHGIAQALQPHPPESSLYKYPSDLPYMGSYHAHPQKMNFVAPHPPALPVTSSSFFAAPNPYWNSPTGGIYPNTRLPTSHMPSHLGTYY
#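 His-tagged ERG Ets domain (1 uM in the protein solution; 300mM KCl, 50mM Tris-HCl, 1mM EDTA, 1mM DTT, pH 7.5) received compound, then a probe mix of 5 nM fluorescein-DNA and 100nM Texas-615-DNA. Fluorescence polarization was read for both dyes.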
# GLS inhibitor = inhibitors of human glutaminase (GLS); O94925; GLS enzymatic activity, qHTS titration; Potency, µM (top dose mostly 45.5 µM), for inactives: top-dose activity change, negative = inhibition, hits mostly inhibitors; 410,000 tested, 0.21% active; AID 624170; also: potency is read from the fitted curve at half-maximal effect; % is scaled to controls: 0 for no effect and ±100 for the full control effect
#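 Coupled fluorescence readout: glutamate oxidase/HRP/Amplex Red detect glutamate formed by hKGA from L-glutamine (1 mM solution added). Buffer 45 mM KH2PO4 pH 8.2, 0.02% Tween-20; reads at t0 and 30 min RT.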
# 12-LOX inh = ALOX12 (human) lipoxygenase inhibition; P18054; purified 12hLO, xylenol orange hydroperoxide absorbance; Potency, µM (series often up to 108 µM), for inactives: at the highest dose activity change, negative = inhibition, actives largely listed as inhibitors; 580,000 tested, 1.1% active; AID 1671190; also: potency is read from the fitted curve at half-maximal effect; % is scaled to controls: 0 for no effect and ±100 for the full control effect
#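 Hydroperoxide product was detected by ferrous iron/xylenol orange as the 573 to 405 nm absorbance ratio. Arachidonic acid at 40 uM (final) was turned over for 30 min at room temperature by 150 nM human 12hLO, pH 7.0 Hepes buffer, after 15 min compound preincubation.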
# Numbers without * were called inactive; u = inconclusive; x = not tested or not shown; & = joins results of further samples; [ ] = remark or other dose. Unless noted, calls follow the shape of the dose curve; as a rule, active = well fitted curve in the direction sought with a large enough effect; inconclusive = small, poorly fitted or top-dose-only effect, or another doubt; inactive = no such curve, though single readings can be large; an effect the other way counts as inactive or inconclusive. A portion of the library; rates above refer to the full screens.
SMILES,G9a inh,JMJD2A Tudor inh,RGS4 inhibitor,HP1b binding inh,PI4K2A block,ERG Ets-DNA blk,GLS inhibitor,12-LOX inh
O=C(CN1CCSc2ccccc21)N1CCN(c2cccc(Cl)c2)CC1,u,u,-8%,-10%[57 µM],0,-2%,7%,-22%
CCc1cccc2c(-c3ccccc3)nc(SCC(=O)Nc3ccc(OC)cc3)nc12,-7%[59 µM],-20%,14%,10%,-15,4%,-1%,-6%
CC(=O)C1C(=O)c2c(cccc2[N+](=O)[O-])C1=Nc1cccc(Cl)c1 (stereo not drawn),x,u,-42%,-19%,-4,-6%,-7%,14%
Nc1ccc(-c2cnc[nH]2)cc1[N+](=O)[O-],x,u,-17%,-21%,-51*,-8%,0%,58%
CC(C)(C)NC(=O)CN(Cc1cccs1)C(=O)CCN1CCc2ccccc21,x,u,-4%[11.4 µM],11%,-3,-10%,10%,-9%
CCOc1cc(-c2nc3ccccn3c2NCC2CCCO2)ccc1O (stereo not drawn),9%[12.7 µM],-8%,-43%,21%,4,-4%,x,u
CCOc1ccccc1C(=O)NC1(C(F)(F)F)C(=O)Nc2c1c(=O)[nH]c(=O)n2-c1ccc(F)cc1 (stereo not drawn),0%[59 µM],2%,-10%,39%[activator],1,-8%,-2%,3%
CCOC(=O)c1c(NC(=O)Cn2nnc3ccccc32)sc2c1CCC(C)C2 (stereo not drawn),-5%,-9%,-24%,19%,8,-3%,-7%,0%
Cc1cc(C)c(C(=O)CSC2=NC(N)=C(C#N)C3(CCCCC3)C2C(N)=O)cc1C (stereo not drawn),79µM*,u,2%,-15%,6,-5%,4%,u
COc1ccc(C(=O)N(c2ccc(OC)cc2)S(=O)(=O)c2ccc3c(c2)n(C)c(=O)n3C)cc1,u,-26%,-11%,20%,1,-1%,-3%,-28%

# Not a retest: an excerpt of the list.
SMILES,G9a inh,JMJD2A Tudor inh,RGS4 inhibitor,HP1b binding inh,PI4K2A block,ERG Ets-DNA blk,GLS inhibitor,12-LOX inh
Cc1cc(C)c(C(=O)CSC2=NC(N)=C(C#N)C3(CCCCC3)C2C(N)=O)cc1C (stereo not drawn),79µM*,u,2%,-15%,6,-5%,4%,u
COc1ccc(C(=O)N(c2ccc(OC)cc2)S(=O)(=O)c2ccc3c(c2)n(C)c(=O)n3C)cc1,u,-26%,-11%,20%,1,-1%,-3%,-28%

# The listing continues:
SMILES,G9a inh,JMJD2A Tudor inh,RGS4 inhibitor,HP1b binding inh,PI4K2A block,ERG Ets-DNA blk,GLS inhibitor,12-LOX inh
O=C(O)c1ccc(Nc2ccc([N+](=O)[O-])c3nonc23)cc1,x,-25%,17%,-10%,-10,11%,5%,-3%
COc1ccc(CNc2oc(Cc3cccc4ccccc34)nc2C#N)cc1,u,u,12%,u,0,7%,5%,8%
CCN(CC)CCNC(=O)c1ccc2c(c1)NC(=O)C(CS(=O)(=O)Cc1ccc(F)cc1Cl)N2 (stereo not drawn),-44%[59 µM],u,4%,-1%,0,5%,u,101%[activator]
Cc1nc(SCCCSc2n[nH]c(C)n2)n[nH]1,-13%[59 µM],-21%,5%,25%,-13,4%,-1%,3%
COc1ccc(C(c2c[nH]c3ccccc23)c2c[nH]c3ccccc23)cc1O,45µM*,x,x,x,x,x,x,-28%
O=C(Nc1ccccc1)c1cccnc1Nc1ccccc1,5%[12.7 µM],-24%,9%,9%,6,1%,6%,429%[activator]
N#Cc1nc(-c2ccccc2F)oc1NCc1ccccc1,40µM*,-22%,-17%,12%,-2,9%,4%,0%&-14%
O=C1CC(c2ccccc2)CC(O)=C1C=NCCCO (stereo not drawn),32%,-10%,12%,40%,-1,1%,1%,61%[activator]
Cc1ccc(Nc2cc(C)nc(-n3nc(C)cc3C)n2)cc1,-1%[59 µM],u,0%,19%[57 µM],0,1%,-9%,-10%
O=C(O)c1ccc(-c2nc(-c3ccccc3)c(-c3cccs3)[nH]2)cc1,x,-13%,11%,32%,1,1%,4%,5%
O=C(CSc1nc(-c2ccccc2)c(-c2ccccc2)o1)NCCCO,x,-21%,29%,21%,2,3%,-8%,u
CN1C(C(=O)Nc2ncccn2)=C(O)c2ccccc2S1(=O)=O,28µM*,u,-9%,37%,-3,10%,32%[activator],u
CCOC(=O)N1CCN(C(=O)CNC(=O)Cc2ccc(Cl)cc2)CC1,12%[12.7 µM],1%,-9%,30%,4,6%,1%,397%[activator]
O=[N+]([O-])c1ccc(C(=S)N2CCN(Cc3ccccc3)CC2)cc1,u,u,8%,-31%,4,-3%,12%,15%
COc1cccc(Cn2c(=O)n(Cc3ccco3)c(=O)c3oc4ccccc4c32)c1,-25%[59 µM],u,12%,26%,-5,2%,0%,-16%
Cc1ccccc1C(=O)Nc1nnc(-c2ccncc2)o1,u,u,20%,33%,-3,20%,25%,20%
CN(C)CCCCOc1ccc(Br)cc1Cl,28µM*,u,0%,u,-6,5%,2%,58%[activator]
O=C(COc1ccccc1-c1nc(-c2ccccc2)no1)Nc1ccc([N+](=O)[O-])cc1,u,u,-24%,8%,0,-1%,6%,0%
CCOC(=O)NCC(C)(C)CNC(=O)OCC,-4%[12.7 µM],6%,13%,25%,1,-15%,1%,-6%
COc1ccc(-c2ccc(CNCCCSc3nnnn3C)o2)cc1Cl,u,u,21%,-15%,-13,1%,-5%,-15%
On1c(-c2ccco2)nc2c1CCc1nonc1-2,3%[59 µM],-19%,-6%,6%,11,-2%,16%,u
CCc1nn(CC(=O)NCCN(CC)CC)c(=O)c2cc3occc3n12,1%[59 µM],-14%,-2%,-7%,-1,3%,6%,-5%
O=C(NNC(=O)C1CC1)c1cc2cc3ccccc3nc2s1,-14%,-38%,6%,-4%,4,6%,15%,-1%
CCCc1ccc2oc(C(=O)N3CCN(c4cnccn4)CC3)c(C)c2c1,x,-33%,15%,-8%,2,-9%,5%,u
COc1ccc(OC)c(NC(=O)CSc2nnc(Cc3cccn3C)n2CCc2ccccc2)c1,50µM*,u,14%,u,4,8%,-2%,21%
O=C(CSc1nc(O)c(C2CCCCC2)c(=O)[nH]1)NCC1CCCO1 (stereo not drawn),u,-16%,30%,38%,-2,7%,11%,-2%
COc1ccc(CCN=c2c([N+](=O)[O-])nn(-c3cccc(C)c3)n2O)cc1OC,u,u,13%,-3%,5,-22%,-10%,-1%
O=C(NCc1ccc(F)cc1)c1cnc2sccn2c1=O,u,-13%,-3%,30%,-2,11%,-19%,-2%[57.4 µM]
C=CCN(CC=C)CCOc1ccccc1F,7.1µM*,u,-2%[11.4 µM],-4%,4,1%,8%,u
O=C1Nc2c(c(=O)[nH]c(=O)n2-c2ccccc2)C(C(F)(F)F)(C(F)(F)F)N1,5%[59 µM],-13%,-7%,24%,5,-2%,0%,u
COc1ccc(C(=O)N(CN2CCCC2=O)c2nccs2)cc1OC,8%[2.33 µM],14%,0%,27%,5,-3%,x,0%
O=C1c2ccccc2-c2nc3ccccc3n21,u,0%&-9%,-17%&-14%,38%&33%,0&-6,1%&13%,-6%&8%,u
COc1ccc(OCc2nn3c(-c4ccccn4)nnc3s2)cc1,25µM*,u,27%,19%,-15,-28%,2%,0%
Cc1ccc(N2CCN(Cc3ccccc3)CC2=O)c(C)c1,u,-100%,-18%,u,0,-10%,0%,u
COc1ccccc1CNC(=S)Nc1ccc2nc(N3CCN(C)CC3)cc(C)c2c1,-10%[59 µM],u,-40%,u,-6,11%,-28%,u
C/C(=N\NC(=S)NCc1ccccc1)c1ccc(C)o1,-3%[59 µM],u,-4%,u,14,7%,19%,16µM*
COc1ccc(Nc2oc(COc3cccc(C)c3)nc2C#N)cc1,u,u,6%,-42%,-3,-5%,15%,74%[activator][57.4 µM]
Cc1ccccc1-c1nc2ccccc2c(=O)n1/N=C/c1ccccc1[N+](=O)[O-],-35%[2.33 µM],u,-28%,-26%,8,-8%,2%,32µM*
CCOC(=O)c1nn(-c2ccc(F)cc2)c(=O)c2c(N)scc12,28µM*,-21%,u,u,-10,-4%,-4%,u
O=S(=O)(c1ccc(Cl)cc1)c1nc(-c2ccco2)oc1N1CCCCC1,32%[12.7 µM],u,-26%,u,-7,1%,-7%,0%
C=CCNC(=S)NNC(=O)c1cc(O)ccc1O,-29%,-22%,-12%,43%[activator],4,8%,0%,2%

# Ordered by heavy-atom count (smallest number first): 6 of the compounds above
SMILES,G9a inh,JMJD2A Tudor inh,RGS4 inhibitor,HP1b binding inh,PI4K2A block,ERG Ets-DNA blk,GLS inhibitor,12-LOX inh
Cc1ccc(N2CCN(Cc3ccccc3)CC2=O)c(C)c1,u,-100%,-18%,u,0,-10%,0%,u
COc1ccc(OCc2nn3c(-c4ccccn4)nnc3s2)cc1,25µM*,u,27%,19%,-15,-28%,2%,0%
COc1ccc(C(=O)N(CN2CCCC2=O)c2nccs2)cc1OC,8%[2.33 µM],14%,0%,27%,5,-3%,x,0%
O=S(=O)(c1ccc(Cl)cc1)c1nc(-c2ccco2)oc1N1CCCCC1,32%[12.7 µM],u,-26%,u,-7,1%,-7%,0%
Cc1ccccc1-c1nc2ccccc2c(=O)n1/N=C/c1ccccc1[N+](=O)[O-],-35%[2.33 µM],u,-28%,-26%,8,-8%,2%,32µM*
COc1ccccc1CNC(=S)Nc1ccc2nc(N3CCN(C)CC3)cc(C)c2c1,-10%[59 µM],u,-40%,u,-6,11%,-28%,u
